INS promoter inh – TRM-6 insulin promoter activity inhibition. TRM-6 cells (human fetal islet line), insulin promoter-eGFP reporter, imaging; reporter expression induced with tamoxifen. inhibition, % at 2 µM. 130,000 compounds, 0.9% hits. AID 1273;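 active = inhibition above the mean plus 3 SD, with well images judged a real hit on visual review, cut at about 60% in these data, passing the limit was not always enough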
GALR2 ag – activates the human galanin receptor 2; activation, %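 (tested at 5 µM)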; 140,000 compounds, 0.48% hits; AID 803; O43603; GALR2-expressing cells, agonist activation read-out;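 active = above mean plus 3 SD of all compounds, about 5% in these data, not always enough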;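 also: 0% = vehicle buffer wells and 100% = reference agonist at full effect; tested in CHO reporter cells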
HSV replic up – increases HSV replication in cells; maximum fold increase; 220,000 compounds, 0.005% hits; HSV replication augmentation in cells, fold increase;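 active = peak rise of 1.5-fold or more in the series; tested in PC3 cells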;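 also: first round at 10 µM; read as green reporter fluorescence; hits show the peak of a series up to 25 µM; 1 = signal of infected wells without compound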
PKD1 inh – blocks activity of human protein kinase D1 | Q15139 | PKD1 kinase fluorescence polarization assay | inhibition, %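 (about 10 µM by stock and volumes)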 | 200,000 compounds, 0.056% hits;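 active = inhibition of 50% or more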;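 also: controls were vehicle for no effect and a reference inhibitor for full effect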
Target sequence (Q15139 whole entry, looked up): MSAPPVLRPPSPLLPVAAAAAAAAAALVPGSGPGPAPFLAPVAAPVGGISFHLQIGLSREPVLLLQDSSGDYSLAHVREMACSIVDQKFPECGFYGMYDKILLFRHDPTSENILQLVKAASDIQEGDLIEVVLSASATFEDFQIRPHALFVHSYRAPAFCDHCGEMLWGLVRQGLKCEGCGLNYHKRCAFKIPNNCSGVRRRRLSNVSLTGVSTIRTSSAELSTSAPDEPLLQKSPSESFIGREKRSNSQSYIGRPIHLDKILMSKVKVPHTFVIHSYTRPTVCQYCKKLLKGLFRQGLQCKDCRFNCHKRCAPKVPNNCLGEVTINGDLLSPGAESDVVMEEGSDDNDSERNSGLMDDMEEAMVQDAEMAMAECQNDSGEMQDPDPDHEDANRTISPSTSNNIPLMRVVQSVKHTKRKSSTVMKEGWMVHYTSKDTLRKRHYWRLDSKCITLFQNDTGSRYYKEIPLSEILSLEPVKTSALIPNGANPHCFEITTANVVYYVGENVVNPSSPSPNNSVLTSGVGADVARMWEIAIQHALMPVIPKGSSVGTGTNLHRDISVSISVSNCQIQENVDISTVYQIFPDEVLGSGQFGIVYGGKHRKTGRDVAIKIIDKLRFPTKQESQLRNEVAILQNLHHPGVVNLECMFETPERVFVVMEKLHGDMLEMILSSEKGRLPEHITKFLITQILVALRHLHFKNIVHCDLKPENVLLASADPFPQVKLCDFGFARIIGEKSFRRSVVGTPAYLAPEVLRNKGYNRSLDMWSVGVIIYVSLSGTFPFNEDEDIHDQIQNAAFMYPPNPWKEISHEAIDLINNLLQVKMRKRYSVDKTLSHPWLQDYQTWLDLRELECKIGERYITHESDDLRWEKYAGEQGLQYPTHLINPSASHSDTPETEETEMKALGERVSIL
RGS16-Gao HTS – regulators of human RGS16-Galphao interaction; bead-based flow cytometry RGS16-Galphao binding, fluorescence; actives lie on both sides; binding response (% of control), % at 10 µM; AID 1441; 220,000 compounds, 0.38% hits;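 active = below 25% or above 175%, edge rows of some plates excepted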;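 also: Galphao activated by GDP with aluminum fluoride before binding; 100% = wells without compound and 0% = beads without RGS; some results beyond the cut were filed as inactive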
INS promoter inh cell count – also measured in INS promoter inh; calls as there; normalized cell count, %; measured here: cell count, toxicity; reference of the scale not given here;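 cells exposed to compound for 48 h; stained nuclei by imaging scaled within each plate; lower means fewer cells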
HSV replic up primary fold – further read-out of HSV replic up, marked with its call; fold increase; compound at 10 µM; measured here: primary screen fold increase 10 uM; tested in PC3 cells;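 GFP signal in the first replicate; 1 = infected wells without compound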
Active calls of the source: *; i = inactive; · = not tested or not shown.

SMILES	INS promoter inh	INS promoter inh cell count	GALR2 ag	HSV replic up	HSV replic up primary fold	PKD1 inh	RGS16-Gao HTS
COc1cc([N+](=O)[O-])ccc1NC(=O)Nc1nc2c(s1)CCCC2	·	·	-0.3	i	1.1	-2	102
C/C(=N\O)C1CCCCC1	·	·	·	i	0.9	·	91
CCCc1nc(-c2cc3ccc(C)cc3[nH]c2=O)no1	-26	96	1.8	i	0.82	2	100
NNC(=O)c1ccc2[nH]c3c(c2c1)CCCC3	·	·	·	i	0.87	5	96
Cc1cccc(N2C(=O)CC(Sc3nc(C)c4c(n3)CCCC4)C2=O)c1 (stereo not drawn)	45	137	-1.5	i	0.84	-2	102
COC(=O)CSCC(=O)Nc1nnc(-c2cccc(C)c2)s1	12	100	·	i	1	-6	103
Cc1cc(-c2ccccc2)nc(N2CCC(C(=O)NCc3ccccc3Cl)CC2)n1	-288	88	-2.1	i	1	-7	98
CC1=C(C#N)C(Nc2ccc(Cl)cn2)(C(F)(F)F)C(=O)N1 (stereo not drawn)	34	18	-2.7	i	1.1	-16	93
COc1ccc(OCC2c3cc(OC)c(OC)cc3CCN2C(=O)C(C)C)cc1 (stereo not drawn)	-25	159	·	i	0.94	-8	112
CN(/N=C\c1ccc(O)c(O)c1)c1nc(-c2ccccc2)cc(-c2ccccc2)n1	-45	82	-0.1	i	0.64	-1	98
Cc1ccc(S(=O)(=O)N(C)CC(=O)OCC(=O)N2CC(=O)Nc3ccccc32)cc1	·	·	·	i	1	-5	109
CCCCNC(=O)CCCCCn1c(=O)[nH]c2cc(C(=O)OC)ccc2c1=O	·	·	·	i	0.85	-5	104
Cc1c(C(=O)Nc2ccc(Br)cc2)cnn1C	-63	110	-0.9	i	1	-8	98
Cc1cccc2c1OCC/C2=N\NC(=O)COc1ccccc1Cl	-6	101	-3.1	i	0.98	2	100
COCCNc1nc(SCc2ccccc2)nc2sc3c(c12)CCC3	-31	136	1.8	i	0.74	-8	103
CCOC(=O)C1=C(CS(=O)(=O)c2ccccc2)NC(=O)NC1c1ccc(OC)c(OC)c1 (stereo not drawn)	·	·	·	i	0.86	·	92
COc1ccc(CCNC(=O)CCC2COc3ccccc3O2)cc1OC (stereo not drawn)	28	32	-3.4	i	1.1	-5	102
CNC(=S)N1CCN(CCNC2=CC(=O)CC(C)(C)C2)CC1	16	101	·	i	0.98	0	112
CC(C)(C)C(=O)CSc1nnc(-c2cccs2)n1CC1CCCO1 (stereo not drawn)	-39	135	-1.4	i	1.2	0	109
COc1ccccc1OC(=O)CN1C(=O)c2ccccc2C1=O	34	85	-1.1	i	0.9	0	99
CCn1cc(/C=N/NS(=O)(=O)c2ccc(C)cc2)c(C)n1	28	93	-0.4	·	·	9	106
CC1(C)CC(=O)C2=C(C1)N=C1SCCC(=O)N1C2c1ccc(C(F)(F)F)cc1 (stereo not drawn)	-14	98	-1.0	i	1	-8	109
Cc1ccccc1C(=O)Nc1ccc(C(=O)N/N=C/c2ccncc2)cc1	-10	108	·	i	0.95	-2	99
Cc1cnc(C(=O)OCc2ccc(COC(=O)c3cnc(C)cn3)cc2)cn1	·	·	·	i	1	-9	93

Filtered by structure: the compounds so far with fluorine (2)
SMILES	INS promoter inh	INS promoter inh cell count	GALR2 ag	HSV replic up	HSV replic up primary fold	PKD1 inh	RGS16-Gao HTS
CC1=C(C#N)C(Nc2ccc(Cl)cn2)(C(F)(F)F)C(=O)N1 (stereo not drawn)	34	18	-2.7	i	1.1	-16	93
CC1(C)CC(=O)C2=C(C1)N=C1SCCC(=O)N1C2c1ccc(C(F)(F)F)cc1 (stereo not drawn)	-14	98	-1.0	i	1	-8	109

Later entries.
SMILES	INS promoter inh	INS promoter inh cell count	GALR2 ag	HSV replic up	HSV replic up primary fold	PKD1 inh	RGS16-Gao HTS
Cc1[nH]n(-c2ccccc2)c(=O)c1N=Nc1ccc2c(c1)OCCO2	-25	72	·	i	0.98	1	110
Cc1ccc(-c2noc(=O)n2CC(=O)Nc2ccc(S(=O)(=O)NC3CC3)cc2)cc1	-47	50	-1.9	i	1.1	0	105
Cc1ccc(NC(=O)c2c(C(F)(F)F)nn(C)c2Cl)cc1C	·	·	-1.4	i	1	0	104
Cc1ccccc1-c1nnc(Cc2ccccc2)o1	13	86	-0.6	i	0.97	-5	100
O=C(CN(C1CCCCC1)S(=O)(=O)c1ccc(F)cc1)NCCCO	47	95	-2.5	i	1	-14	103
O=C(c1coc2ccc(O)cc12)C1CC1	33	135	-0.2	i	0.95	4	104
COC(=O)c1sc(NC(=O)CSc2n[nH]c(N)n2)c(C(=O)OC)c1C	·	·	·	i	0.89	-4	98
Cc1cccc(-n2c(C)cc(C)c(C#N)c2=O)c1	-36	121	·	i	0.96	-2	102
CCC(=O)c1ccc(N2CCN(C(=O)c3ccc(F)cc3)CC2)c(F)c1	11	123	·	i	1.1	0	101
CCc1ccc(NC(=O)c2ccc3ncsc3c2)cc1	-5	216	-3.9	·	·	-10	91
Nc1nc(N2CCOCC2)n[nH]1	-17	96	·	i	1	3	52
O=C(c1cc(-c2ccc(O)cc2)on1)N1CCCc2ccccc21	·	·	-1.5	·	·	1	105
COC(=O)c1cc(OC)c(OC)cc1NC(=S)N1CCN(C/C=C/c2ccccc2)CC1	-32	126	-0.6	i	0.94	1	108
COc1cc(NC(=O)COn2nnc3ccc(S(C)(=O)=O)cc32)cc(OC)c1	29	56	·	i	0.82	-6	210
O=C(NCN1CCc2ccccc2C1)c1cnccn1	45	141	-1.9	i	1	-3	95
CCOc1ccc(C2NC(=O)NC(C)=C2C(=O)OC)cc1C (stereo not drawn)	-20	89	-1.3	i	0.92	0	·
CCOc1ccc(NC(=O)CN(Cc2ccccc2)S(C)(=O)=O)cc1	-72	116	-2.1	i	0.94	-7	110
Cc1ccc(CNC(=S)N2CCOCC2)cc1	·	·	·	i	0.83	-2	100
Cc1ccc(-c2[nH]c(=S)[nH]c(=O)c2C#N)cc1	·	·	·	i	1.1	-1	103
O=C(NCCc1ccccc1)C1CCN(S(=O)(=O)N2CCC3(CC2)OCCO3)CC1	-119	116	-1.9	i	0.89	4	90
C/C(=N\NC(=O)CNc1cccc(Cl)c1C)C1CC1	·	·	·	i	0.98	-4	104
O=C(N/N=C/c1ccc(Br)o1)c1cccnc1	7	152	-1.8	i	0.9	14	104
O=C1CSC(c2ccccn2)N1Cc1cn2ccccc2n1 (stereo not drawn)	-19	100	-0.6	i	0.89	10	102
OCCC1CN(Cc2cccc3c2OCO3)CCN1Cc1ccccc1 (stereo not drawn)	·	·	·	i	1.1	-1	98
CS(=O)(=O)c1ccc2nc(NC(=O)c3ccc(N4CCCC4=O)cc3)sc2c1	·	·	·	i	1.2	·	100
CCOC(=O)c1sc(Nc2nc(C)cc(C)n2)nc1C	·	·	·	i	0.82	·	101
O=C(Cn1c(=O)oc2cc(S(=O)(=O)N3CCCCCC3)ccc21)NC1CCCCCCC1	·	·	-2.8	i	1	-4	104
COc1ccc(NC(=O)CCS(=O)(=O)c2ccccc2Cl)cc1S(=O)(=O)Nc1ccc(Cl)cc1	·	·	·	i	0.71	-3	103
Cc1cccc(CSc2nnc(C)c(=O)n2N)c1	·	·	0.2	i	1.1	0	106
Cc1ccc(NC(=S)NC(NC(=O)c2ccccc2)C(Cl)(Cl)Cl)c(C)c1 (stereo not drawn)	-22	109	-1.1	i	0.77	-11	105
Nc1ccc(N2CCN(CCCCN3C(=O)C4CCCN4C3=O)CC2)cc1 (stereo not drawn)	-26	101	-1.5	i	0.99	-4	102
C/C(=N\NC(=O)Cc1cccn1C)c1ccco1	·	·	·	i	1.1	·	95
CCOC(=O)Cc1csc(NC(=O)/C=C/c2ccco2)n1	·	·	·	i	1	·	96
Cc1ccc(-c2nc(C=Nc3ccccc3)c(O)o2)cc1	·	·	·	i	0.91	0	98
Cc1ccc(SC(C)c2nc(-c3ccncc3)no2)cc1 (stereo not drawn)	-100	106	-1.6	i	0.96	0	103
COC(=O)C1C(O)=C(C=NC2CCCCC2)C(=O)CC1(C)C (stereo not drawn)	50	107	-0.1	i	0.96	-19	101

Shown with bars between the fields: 6 of the compounds above
Structure | INS promoter inh | INS promoter inh cell count | GALR2 ag | HSV replic up | HSV replic up primary fold | PKD1 inh | RGS16-Gao HTS
Cc1ccc(NC(=S)NC(NC(=O)c2ccccc2)C(Cl)(Cl)Cl)c(C)c1 (stereo not drawn) | -22 | 109 | -1.1 | i | 0.77 | -11 | 105
C/C(=N\NC(=O)Cc1cccn1C)c1ccco1 | · | · | · | i | 1.1 | · | 95
Cc1ccc(-c2nc(C=Nc3ccccc3)c(O)o2)cc1 | · | · | · | i | 0.91 | 0 | 98
COC(=O)C1C(O)=C(C=NC2CCCCC2)C(=O)CC1(C)C (stereo not drawn) | 50 | 107 | -0.1 | i | 0.96 | -19 | 101
Nc1ccc(N2CCN(CCCCN3C(=O)C4CCCN4C3=O)CC2)cc1 (stereo not drawn) | -26 | 101 | -1.5 | i | 0.99 | -4 | 102
Cc1ccc(SC(C)c2nc(-c3ccncc3)no2)cc1 (stereo not drawn) | -100 | 106 | -1.6 | i | 0.96 | 0 | 103

Additional results.
SMILES	INS promoter inh	INS promoter inh cell count	GALR2 ag	HSV replic up	HSV replic up primary fold	PKD1 inh	RGS16-Gao HTS
CCN=C1NN=C(c2cc(C)n(CCc3ccccc3)c2C)CS1	30	111	·	i	0.97	0	96
Cc1ccc(-c2ccc(C)c(N)c2C)c(C)c1N	·	·	·	i	1	-7	96
COC(C[C@H](O)C[C@H](O)[C@H](C)OCc1ccccc1)OC	·	·	·	i	1	·	101
Cc1nnc(SCC(=O)Nc2nc(-c3ccc(F)cc3)cs2)[nH]c1=O	-11	61	·	i	0.95	-6	99
Cc1ccc(C[n+]2cc(-c3ccc(Cl)cc3)n3c2CCC3)cc1	·	·	·	i	1	·	101
Cc1cc(NC(=O)CSc2nc3ccsc3c(=O)n2NC(=O)c2ccccc2)no1	-436	68	-0.3	i	1.1	-7	23*
CC1CCCCN1S(=O)(=O)c1ccc2c(c1)CCN2C(=O)C1CCC1 (stereo not drawn)	31	70	-2.6	·	·	-2	101
CCOC(=O)C1(C)C=C(Nc2ccc(C)cc2)C(=O)N1c1ccc(C)cc1 (stereo not drawn)	70*	144*	·	i	0.99	-2	100
CCc1ccc(C(=O)COC(=O)c2ccc(Cl)nc2)cc1	·	·	·	i	1.1	-4	104
CCN(CC)c1ccc(/C=N/N2CCN(c3ccccn3)CC2)cc1	·	·	·	i	1.1	·	100
CN(CC(=O)Nc1ccc(C#N)cc1)CC(=O)Nc1ccc(N2CCOCC2)cc1	·	·	-1.2	i	1.1	2	100
CC(C)C(=O)Nc1ccc(-c2nc3cccnc3o2)cc1	38	90	0.4	i	0.92	0	102
COc1nc(Nc2ccc3c(c2)OCO3)nc(OC)n1	·	·	·	i	0.81	-11	102
Cc1oc(-c2cccc(F)c2)nc1CN(Cc1ccccc1)C[C@@H]1CCC(=O)N1	·	·	·	i	1.1	-7	103
COCc1cc(=O)[nH]c(Nc2nc3ccc(C)cc3o2)n1	72	96	-2.7	i	1	-4	103
Nn1c(SC/C=C/c2ccccc2)nnc1-c1ccncc1	·	·	-1.4	·	·	-2	106
CCN(CC)c1ccc(/C=C2/C(=O)c3ccc(C(=O)O)cc3C2=O)cc1	21	157	-0.6	i	1.1	-18	92
NNC(=O)c1cccc(COCC(F)(F)C(F)F)c1	·	·	·	i	0.93	·	105
O=C(Cc1ccc(Cl)cc1)Nc1cccc2ncccc12	-11	73	·	i	1.2	9	103
CCOc1ccccc1NC(=O)C(OC(=O)c1ccc(O)cc1)c1ccccc1 (stereo not drawn)	-39	86	0.3	i	0.96	-9	98
CNc1nnc(-c2ccc(C)cc2)c2ccccc12	38	101	·	i	0.9	-3	101
CCCCNC(=S)NNC(=O)C12CC3CC(CC(C3)C1)C2	-86	99	-1.0	i	1.1	-3	99
CCCC(=O)N(CC(=O)Nc1sc(C)c(C)c1C(N)=O)Cc1ccccc1	·	·	·	i	1	1	105
O=C(Nc1cccnc1)c1ccc2c(c1)C(=O)N(Cc1cccnc1)C2=O	57	129	-2.0	i	1	-12	108
CCN(CC)CCN(C)c1ccc(N2C(=O)C3CC=CCC3C2=O)cc1[N+](=O)[O-] (stereo not drawn)	36	92	·	i	1.1	-6	99
Cc1ccccc1-n1cc(CNCc2c(C(=O)N(C)C)nc3ccc(Cl)cn23)cn1	·	·	·	i	0.9	-8	101
Cc1c(C(=O)O)oc2c1C(O)CCC2 (stereo not drawn)	·	·	-0.2	i	0.96	8	107
O=C(NCc1cccnc1)C(=O)NC1CCCCC1	·	·	·	i	0.96	-3	108
O=C(N/N=C/c1sc(N2CCOCC2)nc1-c1ccccc1)c1ccccc1Cl	12	101	·	i	0.95	-3	101
Cc1ccc(C2CC(C(F)(F)F)n3nc(C(=O)NCc4ccco4)cc3N2)cc1 (stereo not drawn)	·	·	-1.9	i	0.87	0	105
NNC(=O)CN1CCN(c2ncc(C(F)(F)F)cc2Cl)CC1	19	161	·	i	1	-4	102

Screening data deposited in PubChem by several laboratories.
